AmpC inh no det: inhibitors of E. coli AmpC beta-lactamase without detergent | P00811 | AmpC nitrocefin hydrolysis, absorbance 480 nm, no detergent; potencies from a single point are estimates | Potency, µM (titrated, usually from 28.7 µM), without a hit: at the highest dose activity change, negative = inhibition | hit rate 1.8% among 71,000 | AID 585; active = falling curve, for most hits resting on a single point; inconclusive = weak or doubtful change; inactive = flat or rising curve; note: % of control where 0% means no effect; about half of the hits show no inhibition at the top dose; a quarter of the inactives give rising signals
Target sequence (P00811 whole entry, looked up): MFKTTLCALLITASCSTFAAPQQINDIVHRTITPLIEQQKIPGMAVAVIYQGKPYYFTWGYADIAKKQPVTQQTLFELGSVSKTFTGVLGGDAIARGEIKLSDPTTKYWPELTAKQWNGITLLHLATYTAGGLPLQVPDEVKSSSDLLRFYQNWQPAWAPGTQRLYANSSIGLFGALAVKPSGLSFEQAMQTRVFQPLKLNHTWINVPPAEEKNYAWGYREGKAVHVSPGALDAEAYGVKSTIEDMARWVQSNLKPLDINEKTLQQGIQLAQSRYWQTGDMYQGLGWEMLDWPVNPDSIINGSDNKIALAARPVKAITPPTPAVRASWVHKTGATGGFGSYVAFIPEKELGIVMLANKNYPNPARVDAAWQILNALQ
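AmpC in 20 mM phosphate buffer pH 7.0 was preincubated 15 min at room temperature with compounds. Nitrocefin (800 uM stock) was then added and hydrolysis followed at 480 nm every 20 s for 4 min.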
Starred values were filed as active, the others as inactive; [ ] = remark or other dose. Potency is the fitted concentration of half-maximal effect. Some of the compounds tested; count on the stated rates, not on these rows.

SMILES	AmpC inh no det
O=C(Nc1cccc2cccnc12)[C@@H]1[C@@H](C(=O)O)[C@H]2CC[C@@H]1O2	-2%[5.75 µM]
CCOC(=O)C1=C(C)OC(N)=C(C#N)C1c1ccsc1 (stereo not drawn)	-2%
CCOc1ccc(NC(=O)c2nccnc2CO)cc1	9%
N#Cc1cc2[nH]c(=O)c(=O)[nH]c2cc1[N+](=O)[O-]	5%
Cc1ccc(-n2c(SCC(=O)OC(C)C)nnc2-c2ccncc2)cc1	36%
Cc1ccc(C2(C)NC(=O)N(CC(=O)Nc3ccc4c(c3)OCO4)C2=O)cc1 (stereo not drawn)	0%
Cc1cc(C)n(CCc2nc3c4ccccc4nc(SCc4ccc(C#N)cc4)n3n2)n1	48%
O=C(O)CCc1nc2ccccc2n(CCc2ccccc2)c1=O	7%
O=C(O)c1ccccc1C(=O)N1CC=C(c2ccccc2)CC1	-2%
O=C1c2ccccc2C(Nc2ccc(Cl)cn2)N1c1cccnc1 (stereo not drawn)	4µM*[single pt active]
COc1ccccc1NC(=O)c1ccccc1NS(C)(=O)=O	92%
CC(C)C(NC(=O)C1CCCCC1)C(=O)N1CCN(c2ccc(F)cc2)CC1 (stereo not drawn)	60%
CCN1CCN(C(=O)c2ccccc2N(Cc2ccccc2)S(C)(=O)=O)CC1	-1%
COc1ccc(Cc2ccccc2C(=O)O)c2ccccc12	-11%[5.75 µM]
NC(=O)c1ccc(OC[C@H](O)CN2CC=C(c3ccc(F)cc3)CC2)cc1	4%
CCCc1cc(=O)oc2cc3occ(C)c3cc12	-5%
CCCC(C)NC(=O)c1ccc(F)cc1 (stereo not drawn)	-5%
O=C(c1cc(C(F)(F)F)cc(C(F)(F)F)c1)N1CCC2(CC1)CCN(c1ccccc1)CC2	9%
CCN(CC)S(=O)(=O)c1ccc(NC(=O)C2COc3ccccc3O2)cc1 (stereo not drawn)	3%
Cc1ccccc1-c1nnn(CC(=O)c2ccc(S(=O)(=O)N3CCCC3)cc2)n1	20%
COc1cccc(-c2cc(C(F)(F)F)n3nc(N)nc3n2)c1	-1%
COc1ccccc1S(=O)Cc1ccc(C(=O)NC2CCCC2)o1 (stereo not drawn)	4µM*[single pt active]
CCC(=O)Nc1ccc(C(=O)Nc2ccc3c(c2)C(=O)N(CC2CCCO2)C3=O)cc1 (stereo not drawn)	26%
OC[C@@H]1NC[C@@H](O)[C@@H](O)[C@H]1O	-3%

As entered above:
Value for `CCCC(C)NC(=O)c1ccc(F)cc1` (stereo not drawn) under AmpC inh no det: -5%
Value for `CCC(=O)Nc1ccc(C(=O)Nc2ccc3c(c2)C(=O)N(CC2CCCO2)C3=O)cc1` (stereo not drawn) under AmpC inh no det: 26%

3 of these compounds, set out differently:
O=C1c2ccccc2C(Nc2ccc(Cl)cn2)N1c1cccnc1 (stereo not drawn)
  AmpC inh no det: 4µM*[single pt active]

COc1ccccc1NC(=O)c1ccccc1NS(C)(=O)=O
  AmpC inh no det: 92%

CC(C)C(NC(=O)C1CCCCC1)C(=O)N1CCN(c2ccc(F)cc2)CC1 (stereo not drawn)
  AmpC inh no det: 60%

Going on with the list:
SMILES	AmpC inh no det
O=C(Cn1nnc(-c2ccc(S(=O)(=O)N3CCCC3)cc2)n1)NCC1CCCO1 (stereo not drawn)	24%
CC1=CC(C)=Nc2ccc(C)cc2N1	19%
O=C(Nc1cnn(Cc2ccc(Cl)cc2)c1)C1CCCC1	1%
O=C(C1CCCN(S(=O)(=O)c2ccc(F)cc2)C1)N1CCCC1 (stereo not drawn)	4%
CCc1ccccc1N(CC(=O)NCc1ccco1)C(=O)c1snc(C(N)=O)c1N	20%
Cc1cccc(OCc2nnc(SCc3nc4ccccc4c(=O)[nH]3)o2)c1	1%
O=C(Cn1nc(-c2ccccc2)ccc1=O)Nc1ccc(N2CCN(C(=O)c3ccccc3)CC2)cc1	130%
O=C(c1cc(-c2cccc(O)c2)on1)N1CCN(C(c2ccccc2)c2ccccc2)CC1	-1%
O=C(O)C1CC(c2cccc(Br)c2)=NO1 (stereo not drawn)	-4%
CCCCn1c(SCN2C(=O)c3ccccc3C2=O)nc2cc(S(N)(=O)=O)ccc21	1%
CC1(C)CC(=O)c2cnc(NC(=O)CSc3nc4ccccc4o3)nc2C1	4%
Cc1cc(Cl)cc(C)c1OCCCCn1ccnc1	38%
CCN1C(=O)/C(=C/N2CCc3ccccc32)SC1=S	-13%
COC(=O)C1(C)NC(=O)c2ccccc2N1 (stereo not drawn)	5%
c1ccc2nc(CC[C@@H]3CCCCN3)ccc2c1	11%[5.75 µM]
Cn1c(=O)[nH]c(=O)c2c1nc(N1CCOCC1)n2CCN1CCOCC1	-1%
c1ccc(C2CC3CC4(CCCC4)N2O3)cc1 (stereo not drawn)	2%
CN(C(=O)COc1cc(=O)n(C)c2ccccc12)c1cccc(Cl)c1	104%
c1ccc(-n2nnc3c(N4CCOCC4)ncnc32)cc1	7%
O=C(COC(=O)c1ccc[nH]c1=O)NC1CCCC1	-3%
Cc1nn(Cc2ccc(Br)cc2)c(C)c1NC(=O)c1nn(C)cc1Cl	64%
COC(=O)C1=C(C(C)=O)C(c2ccc(C)cc2)n2nnnc2N1 (stereo not drawn)	-11%
COc1ccccc1CCNC(=O)CSc1nc(-c2ccco2)cc(C(F)(F)F)n1	14%
CCC1(NC(C)=O)CC2CC1CC2NC(C)=O (stereo not drawn)	2%
c1ccc2nc(-c3nc4ccccc4o3)ccc2c1	2%
COCCNC(=O)C(c1cccs1)N(C(=O)Cn1nnc2ccccc21)c1ccccc1 (stereo not drawn)	34%
CN(C)c1nc(N)nc(CSc2ncc(Cl)cc2Cl)n1	19%
Cn1c(=O)c2c(nc(CN3CCN(C(=O)c4ccco4)CC3)n2Cc2ccc(Cl)cc2)n(C)c1=O	114%
Cc1nnc(N(C)C(=O)Cc2ccc3c(c2)OCO3)s1	6%
CC(C)c1cc(CN(C)C)c(O)c(C(C)(C)C)c1	-3%[5.75 µM]
CCN1C(=O)c2cccc3c(NC(=O)c4ccc(S(=O)(=O)N5CCOCC5)cc4)ccc1c23	112%
CCC(C)c1ccc2oc(-c3ccc(NC(=O)c4ncn[nH]4)cc3)nc2c1 (stereo not drawn)	13µM*[single pt active]
COc1ccc(OC)c2c(C)cc(NCCN3CCOCC3)nc12	39%
CCOc1cc(-c2nc3cc(C)ccn3c2NCC2CCCO2)ccc1O (stereo not drawn)	22%
O=C(c1ccncc1)N1CCC2(CCCN(Cc3nccs3)C2)CC1	25%
COC(=O)c1ccc(NC(=O)C2CCCO2)cc1 (stereo not drawn)	1%
C[N+](=O)[O-]	-5%
Cc1ncc(CN=Cc2ccc(Cl)cc2)c(N)n1	6%[5.75 µM]
C[C@@H]1CCc2cc(F)cc3c(=O)c(C(=O)O)cn1c23	-11%[12.8 µM]
CCOc1cc(C(=O)OCC(=O)NCc2ccco2)cc(OCC)c1OCC	51%
O=S(=O)(c1cccs1)N1CCN(CC(O)COc2cc(Cl)ccc2Cl)CC1 (stereo not drawn)	34%
CCSc1nnc(NC(=O)c2ccccn2)s1	-1%
O=C(O)c1cc(-c2ccc3cc4c(cc3c2)OCO4)nc2ccccc12	-11%[5.75 µM]
FC(F)(F)c1ccccc1-c1cncnc1NCc1cccs1	3%
CCOC(=O)N1CCN(C(=O)CSCC(=O)Nc2nc(-c3ccc(OC)cc3)cs2)CC1	103%
O=C(NCC12CC3CC(CC(C3)C1)C2)c1cc2n(n1)C(C(F)(F)F)CC(c1ccco1)N2 (stereo not drawn)	75%
O=C(c1ccc(NS(=O)(=O)c2ccccc2)cc1)N1CCN(Cc2ccc3c(c2)OCO3)CC1	47%
CCOC(=O)c1sc(NC(=O)CSc2ncn(-c3ccccc3)n2)nc1C	8%
N#Cc1ccc(NC(=O)CN2C(=O)NC(Cc3ccccc3)C2=O)cc1 (stereo not drawn)	-7%
OC[C@@H]1O[C@H](n2cnc3c(/C=C(\O)c4ccccc4)ncnc32)[C@H](O)[C@@H]1O	-3%[5.75 µM]
Cc1ccc2nc(NC(=O)CCNS(=O)(=O)c3cccs3)sc2c1	-6%
CCOC(=O)Cn1cc(C(=O)c2ccco2)c2ccccc21	12%
CC1=CCC2C(=O)N(c3nc(C)cc(C)n3)C(=O)C2C1 (stereo not drawn)	5%
CCOc1ccc(N2C(=O)c3cccnc3C2=O)cc1	-2%
CN1CCN(c2oc(-c3cccs3)nc2S(=O)(=O)c2ccccc2)CC1	22%
COc1cccc(C(=O)N2CCN(C3CCC(c4ccccc4)CC3)CC2)c1 (stereo not drawn)	96%
CCCc1[nH]nc2c1C(c1cccc(OC(=O)c3ccco3)c1)C(C#N)=C(N)O2 (stereo not drawn)	-21%
CC(C)CCn1c(=O)c2ccccc2n2c(CN(C)Cc3ccccc3)nnc12	111%
O=C(COc1ccc(S(=O)(=O)NC2CCCC2)cc1)N1CCCCCC1	3%
CCOC(=O)C(NC(=O)c1ccccc1)(N1CCCC1=O)C(F)(F)F (stereo not drawn)	39%

Continued:
SMILES	AmpC inh no det
Cn1c(=O)oc2ccc(C(=O)CSc3nnnn3-c3ccccc3)cc21	16%
O=C(CCC(=O)N1CCN(C2CCCCC2)CC1)Nc1nnc(C(F)(F)F)s1	18%
CCOc1ccc(OCC)c(NC(=O)CN(c2ccc(C)cc2)S(=O)(=O)c2c(C)noc2C)c1	25%
O=C(c1cc(S(=O)(=O)N2CCCCC2)c(Cl)cc1N1CCOCC1)N1CCOCC1	59%
N#C/C(=C\Nc1ccccn1)C(=O)c1ccco1	2%[5.75 µM]
Cc1cccc(C)c1NC(=O)Cn1nnc(-c2ccc(N3CCOCC3)cc2)n1	-21%
CC[C@](N)(CCC(=O)O)C(=O)O	5%
CC(=O)c1ccc(OCC(O)CN2CCN(CCO)CC2)cc1 (stereo not drawn)	4µM*[single pt active]
CCOC(=O)N1CCN(C(=O)c2sc3nc(-c4ccc(F)cc4)cn3c2C)CC1	119%
COc1ccc(OCc2nnc(SCC(N)=O)n2-c2ccccc2OC)cc1	33%
C=CCc1cc(C(=O)N2CCCCC2)ccc1O	2%
COc1ccc(-c2nc(C#N)c(NCC3CCCO3)o2)cc1OC (stereo not drawn)	20%
COc1cc(-c2nnc(SCC(=O)c3ccc(C)cc3)o2)cc(OC)c1OC	125%
COc1ccc(OCc2nnc3n2N=C(c2ccc(OC)cc2)CS3)cc1	4µM*[single pt active]
COC(=O)[C@@H]1[C@@H]2C[C@H]3c4[nH]c5cc(OC)ccc5c4CCN3C[C@@H]2C[C@H](OC(=O)c2cc(OC)c(OC)c(OC)c2)[C@H]1OC	119%[12.8 µM]
Cc1c(C)c2ccc(OCC(=O)N(C)C)c(C)c2oc1=O	1%
CCOC(=O)C1CCN(c2c(NC3CCCCCCC3)c(=O)c2=O)CC1	3%
O=C(Oc1ccccc1)N1CCC2(CCCN(c3ccc(-c4ccccc4)cc3)C2)CC1	-1%
CCOC(=O)c1nn(-c2cc(C(=O)OC)cc(C(=O)OC)c2)cc1O	3%
Cc1ccc(NC(=O)Cn2cccc2)c(Br)c1	5%
O=C(CSc1nnc(-c2ccccc2Br)o1)N1CCc2ccccc2C1	2%
Cn1c(=O)oc2cc(S(=O)(=O)NCCC(=O)NC3CCCC3)ccc21	10%
COC(=O)C1C(=O)C2=C(CC1C)NC(C)=C(C(=O)OCc1ccc(OC)cc1)C2c1ccc(C)o1 (stereo not drawn)	87%
CCOC(=O)N1CCN(C(=O)c2ccc(NS(C)(=O)=O)cc2)CC1	-2%
CO[C@@H]([CH2][Hg])CN1C(=O)c2ccccc2S1(=O)=O.Cn1c(=O)c2nc[nH]c2n(C)c1=O	-15%[5.75 µM]
O=C(CSc1nnc2sc3ccccc3n12)N1CCN(c2ccccc2)CC1	48%
O=C(O)CSC(NC(=O)c1cccnc1)(C(F)(F)F)C(F)(F)F	2%
Cc1ccc(CN(C)CCc2ccccn2)cc1	15%
CC(C)n1c(/C=C\[C@@H](O)C[C@@H](O)CC(=O)O)c(-c2ccc(F)cc2)c2ccccc21	39%[12.8 µM]
Cc1nc2cnc(N3CCN(C)CC3)nc2n(C[C@H]2CCCO2)c1=O	4%
Cc1ccc(Nc2nc(N)nc(CN3CCN(Cc4ccc5c(c4)OCO5)CC3)n2)c(C)c1	79%
ClC1=C(Cl)C2(Cl)C3C4C=CC(C4)C3C1(Cl)C2(Cl)Cl (stereo not drawn)	-1%
Cc1cc(C)n(C(=O)CNc2cccc(Cl)c2C)n1	7%
COc1ccc(-c2nc(C#N)c(N3CCN(c4ccccc4)CC3)o2)cc1	-3%
Cc1cc(NC(=O)C2CC(=O)OC2c2ccccc2)no1 (stereo not drawn)	0%
O=C(Cc1c(C(=O)O)[nH]c2ccccc12)NCCN1CCN(c2ccccc2F)CC1	0%
N#Cc1c(N)nc2c(c1-c1ccncc1)CCCCCC2	12%
CCOCCCNC(=O)c1[nH]c(C)c(C(C)=O)c1C	-7%
COc1ccc(-c2c(C)n([O-])c3c([n+]2=O)CCC3)cc1OC	2%
CCOc1ccc(C(=O)OCn2nnc3ccccc3c2=O)cc1OC	30%
O=C(Nc1ccc(F)cc1F)N1CCCCC1c1cccnc1 (stereo not drawn)	-10%
N[C@H](CO)C(=O)NCC(=O)O	5%[5.75 µM]
Cc1ccc(/C(O)=C2\C(=O)C(=O)N(CCN(C)C)C2c2ccccc2F)cc1 (stereo not drawn)	7%
O=C(Nc1ccc(N2CCN(C(=O)c3ccco3)CC2)c(Cl)c1)c1cccs1	4%
